# StopGo FLuc – FMDV 2A StopGo reporter, firefly signal. HEK cells with a luciferase reporter of 2A StopGo recoding. actives 0.23% (n = 120,000). Potency, µM (highest dose often 57.5 µM), inactives show at the top dose signal change, negative = less light. AID 1745856; active = well fitted falling curve with a large enough effect; inconclusive = small, poorly fitted or top-dose-only effect; inactive = no such curve, though single readings can be large or run the other way; also: nearly all actives have a fitted effect of over 60% in size; overnight with compound
# StopGo RLuc – FMDV 2A StopGo reporter, Renilla signal; HEK cells with a luciferase reporter of 2A StopGo recoding; Potency, µM (titrated, usually from 57.5 µM), for inactives: top-dose signal change, negative = less light; actives 0.32% (n = 120,000); AID 1745857; active means well fitted falling curve with a large enough effect; inconclusive means small, poorly fitted or top-dose-only effect; inactive means no such curve, though single readings can be large or run the other way; also: nearly all actives have a fitted effect of over 55% in size; overnight with compound
# * hit, by the source's call; u = inconclusive; & = joins results of further samples; [ ] = dose if it differs, or a comment. % is scaled to controls: 0 for no effect and ±100 for the full control effect; potency is read from the fitted curve at half-maximal effect. This is a subset. The share of hits here may be higher or lower than overall.
SMILES,StopGo FLuc,StopGo RLuc
CCNC(=O)c1cccc(NC(=O)c2cc(C3CC3)nc3ccccc23)c1,6%,12%
O=C(O)c1cccnc1SCC(F)(F)F,0%,0%
Cc1ccccc1CNC(=O)CCCn1c(=O)c2cccn2c2cccnc21,1%,-9%
Cc1ccc(N(C)S(=O)(=O)c2ccc(-c3cnc(C4CC4)o3)cc2)cc1,13%,18%
O=C(NCCCNc1ccccc1)NCc1cccnc1,8%,-4%
CCN(CC)C(=O)C(Sc1nc2cc(S(=O)(=O)N3CCCCC3)ccc2o1)c1ccccc1 (centres undefined),11%,114%[activator]
COc1ccc(OC)c(NC(=O)Cn2c(=O)cc(-c3ccccc3)c3c(C)nn(C)c32)c1,-11%,4%
CCCCC(=O)Nc1oc2c(C)cccc2c(=O)c1-c1cc(OC)c(OC)c(OC)c1,-10%,-9%
COc1ccc(OCC(=O)Nc2ccc(Cl)c(-c3nc4ncccc4o3)c2)cc1,13%,4%
N#Cc1nc(-c2ccc(S(=O)(=O)N3CCCC3)cc2)oc1NCc1cccnc1,-5%,63%[activator]
COC(=O)c1sccc1S(=O)(=O)N(CC(=O)NCc1ccc(C)cc1)c1ccc(C)cc1,26%,45%[activator]
Cc1cccc(NC(=O)CSc2nnc(Cc3cccn3C)n2-c2ccc(F)cc2)c1,-12%,53%[activator]
CCOc1cc2c(cc1NC(=O)c1ccc(SC)cc1OC)OC(C)C2 (centres undefined),27%,25%
Cc1ccc(NC(=O)CN(C)S(=O)(=O)c2cccc3nsnc23)c(C)c1,-3%,12%
CSc1ccccc1C(=O)Nc1c(C(C)C)cccc1C(C)C,-5%,5%
CCOCc1ccc(CNC(=O)/C=C/c2ccco2)cc1,-7%,-15%
COc1cc(Cl)c(C)cc1NC(=O)Cn1nc(-c2cccs2)oc1=O,-4%,12%
Cc1ccccc1NC(=O)c1ncoc1-c1cccs1,0%,-12%
O=c1oc2ccc(Br)cc2cc1-c1ccccc1,63%[activator],20%
O=C(c1ccc2c(c1)nc1n2CCCCC1)N1CCN(c2ccccc2)CC1,101%[activator],15%
COc1ccc(NC(=O)c2cccc(N3CCCS3(=O)=O)c2)c(OC)c1,10%,-7%
CCOc1ccc(C(=O)C(C)n2cnc3c2c(=O)n(C)c(=O)n3C)cc1 (centres undefined),u,u
COc1ccc(CN(C)C(C)c2nnc(-c3ccc(C)cc3)o2)cc1F (centres undefined),236%[activator],23%
Cc1ccc(NC(=O)c2cc3ccc(O)cc3oc2=O)cc1,206%[activator],10%
NC(=O)Cc1csc(NC(=O)CCc2ncc(-c3ccccc3Cl)o2)n1,0%,-5%
C(=C\c1ccccn1)/c1ccccc1,268%[activator],0%
Cc1ccc(C(=O)N(Cc2ccco2)c2ccccn2)cc1,132%[activator],40%[activator]
COc1ccc(C(=O)/C(=C/c2ccncc2)c2nc3ccccc3o2)cc1OC,u,16µM*
COc1ccc(Br)cc1/C=C(\C#N)C(=O)NC(C)c1ccccc1 (centres undefined),u,u
CC(C)Oc1ccc(C(=O)Nc2ccc(Oc3ccc(Cl)cc3)cc2)cc1,29%,9%
COc1ccc(NC(=O)CSC2=Nc3ccccc3N=C(c3ccc(F)cc3)C2)cc1OC,32%[activator],-1%
CCCN1C(=O)CCc2cc(NS(=O)(=O)CC)ccc21,12%,-1%
CC(C)NC(=O)c1ccc(-c2ccc(F)cc2)o1,167%[activator],8%
c1coc(CNc2nc(Nc3cccc4ccccc34)nc3ccccc23)c1,u,u
CCC1CCCCN1C(=O)Cn1c(=O)n(CCCCCC(=O)NCc2ccc(F)cc2)c(=O)c2sccc21 (centres undefined),-12%,-13%
CCCCCCCCCc1ccc(-c2ccc(CCCCCCCC)cn2)cc1,0%,0%
C=CCNc1oc(COc2ccc(F)cc2)nc1C#N,151%[activator],1%
COc1ccc(-c2cc(Nc3ccccc3)nc(C)n2)cc1,204%[activator],4%
COc1ccc(N(CC(=O)NCCc2cccc(C)c2)S(=O)(=O)c2c(C)noc2C)cc1,-7%,9%
Cc1oc(-c2nc(C#N)c(NCc3ccc(F)cc3)o2)cc1S(=O)(=O)N1CCCC1,3%,24%
CCN1CCN(C(=O)CS(=O)Cc2nc(-c3ccc(OC)c(OC)c3)oc2C)CC1 (centres undefined),7%,-9%
CC1CCC(NC(=O)c2cc3c(Cl)nc4ccccc4c3s2)CC1 (centres undefined),0%&0%,12%&10%
CC(C)(C)c1ccc(C(=O)Nc2ccc(-c3nc4ccccc4o3)c(O)c2)cc1,-14%,-16%
O=C(CSc1n[nH]c(-c2ccccc2)n1)N1CCN(c2ccc(F)cc2)CC1,-23%,0%
O=C(COc1ccccc1)Nc1sc2c(c1C(=O)Nc1ccccc1Cl)CCCCC2,1%,-4%
Cc1ccc(N2CCN(S(=O)(=O)c3nnc(NC(=O)c4cccc(F)c4)s3)CC2)cc1,-8%,-10%
O=C(CN1CCN(Cc2nnc(-c3ccccc3)o2)CC1)N1CCCC1,27%,-7%
CC(C)CC(=O)N[C@H](C(=O)N[C@H](C(=O)N[C@@H](CC(C)C)[C@@H](O)CC(=O)N[C@@H](C)C(=O)N[C@@H](CC(C)C)[C@@H](O)CC(=O)O)C(C)C)C(C)C,-4%,-6%
CC(C)Nc1cc(N2CCN(C3CCCCC3)CC2)c2noc3c2c1C(=O)c1ccccc1-3,-16%,-14%
c1ccc(C(O[C@H]2CCCN(CCc3ccc4c(c3)OCO4)C2)c2ccccc2)cc1,-12%[11.5 µM],-7%
CCN(C(=O)C1Cc2ccccc2C(=O)O1)c1c(N)n(Cc2ccccc2)c(=O)[nH]c1=O (centres undefined),-9%,-14%
COc1ccccc1Cc1nc2ccccc2nc1SCC(=O)N1CCc2ccccc21,-8%,13%
CCS(=O)(=O)c1nc(S(=O)(=O)c2ccc(C)cc2)c(NC2CCCC2)s1,18%,289%[activator]
COc1ccccc1-c1coc2cc(OC(=O)c3ccc(C)cc3)ccc2c1=O,4%,0%
Cn1c(=O)c2cc(C(=O)Nc3ccc(Cl)c4ncccc34)cnc2n(C)c1=O,-5%,-11%
Cc1oc(-c2ccccc2)nc1CC(=O)N1CCC(CC(N)=O)CC1,-3%,-9%
C=C(Cl)CN1CCC(N2CCCCC2)CC1,15%,-4%
CCOC(=O)c1c(C)n(C(C)C)c2ccc(OC(=O)c3ccccc3)cc12,-8%,-16%
COc1cccc(CCNc2ncnc3c2nnn3C)c1,-14%,-5%
COc1ccc(NC(=O)CCn2nc(-c3cccs3)oc2=O)c(OC)c1,31%[activator],21%

# Next section
SMILES,StopGo FLuc,StopGo RLuc
CS(=O)(=O)Cc1ccc(C(=O)Nc2ccc(F)cc2F)cc1,65%[activator],-3%
CC1CCCN(c2csc3ccccc3c2=O)C1 (centres undefined),170%[activator],161%[activator]
ClCCN1CCOCC1,2%,8%
Clc1cccc(Cl)c1CO/N=C/c1cccc(Oc2ccccc2)c1,9%,15%
Cc1cccc(-n2c(=O)c3ccccc3n(Cc3ccc(F)cc3)c2=O)c1,-5%,14%
O=C(Nc1ccc2nc(SCc3ccc(Br)cc3)sc2c1)C1CCCCC1,27%,-1%
CCONC(=O)c1cc2cc(C)ccc2o1,u,17%
OC(C#CCN1CCOCC1)c1ccccc1 (centres undefined),33%[activator],16%
CCc1cccc(NC(=O)Cc2nc(-c3ccc(OC)cc3)no2)c1,-6%,7%
Cn1c(C=C(C#N)C#N)ccc1-c1cc(Cl)ccc1Cl,-17%,-28%
CCOc1ccc(CC2C(=O)N(C)c3ccc(Br)cc32)cc1 (centres undefined),13%,34%[activator]
CCOC(=O)c1ccc2[nH]c(CSCC(=O)Nc3cc(C)cc(C)c3)cc(=O)c2c1,-6%,12%
COC(=O)[C@]12C[C@H](CC(=O)N3CCSCC3)C(=O)N(Cc3cccc4ccccc34)C1=C[C@H](C(C)C)O[C@@H]2C1CC1,u,-33%
COc1ccc(Cl)cc1C(=O)NCC(c1ccc(N(C)C)cc1)N1CCCC1 (centres undefined),2%,11%
CSc1ccc(C(C)NC(=O)c2ccccc2Cl)cc1 (centres undefined),10%,4%
O=C(Nc1ccc(Cl)cc1C(F)(F)F)c1ccccc1F,51%[activator],2%
Cn1c(=O)c2c(ncn2CC(=O)Nc2cc(Cl)cc(Cl)c2)n(C)c1=O,1%,-5%
COc1ccc(C(=O)Nc2cccc3cccnc23)cc1OC,0%,7%
Cc1c(CC(=O)NCCc2ccc(Cl)cc2)c(=O)oc2c(C)c(O)ccc12,-25%,-18%
COc1ccc(OC)c(C(C)NC(=O)CCc2ncc(-c3ccc(F)cc3)o2)c1 (centres undefined),20%,1%
Cc1nc2sccn2c(=O)c1S(=O)(=O)Nc1ccc(N2CCOCC2)cc1,-8%,31%[activator]
CCOC(=O)c1c(C)oc2nc(C)nc(N3CCN(c4ccccc4)CC3)c12,-5%,-12%
Cc1nc(-c2ccc(S(=O)(=O)Nc3cccc(C#N)c3)cc2)co1,5%,159%[activator]
CCCOc1ccc(C2C(=O)N(C3CCCCCC3)CC(=O)N2Cc2ccc(OC)cc2)cc1OC (centres undefined),11%,24%
Cc1cc(C)c2c(n1)nn1c(C)c(CCC(=O)NCc3ccc(Cl)cc3)c(C)nc21,9%,-18%
CC(NC(=O)C1CCCc2ccccc21)c1cccc(F)c1 (centres undefined),2%,-4%[1.06 µM]
Cc1cccc(C(=O)N/N=C/c2ccccc2C)c1,38%[activator],11%
Cc1ccc(CN(C)C(=O)C2CCN(c3ccc(C(F)(F)F)cn3)CC2)c(C)c1,-4%,-1%
COc1ccc(CNC(=O)Cc2coc3ccc(C)cc23)cc1,13%,-18%
CCOc1ccccc1NC(=O)Cn1c(=O)n(C(C)C)c(=O)c2oc3ccccc3c21,-9%,-5%
O=c1c2ccccc2c(-c2ccc(Cl)cc2)nn1-c1cc(N2CCNCC2)ccc1[N+](=O)[O-],-9%,-12%
CC(=O)c1ccc(NC(=O)COc2nc(C)c3c(c2C#N)CCCC3)cc1,105%[activator],-5%
Fc1ccc(/C=N/Nc2ccccc2Cl)cc1F,0%,12%
Clc1ccc(-c2cc3ncc4c(n3n2)-c2ccccc2OC4)cc1,22%&26%,-9%&-8%
CC1=C(C(=O)N2CCCCC2)C(c2cc(Br)ccc2F)C2=C(CCCC2=O)N1 (centres undefined),-1%,12%
COC(=O)c1ccc(C2NC(=S)NC3=C2CCc2ccccc23)cc1 (centres undefined),22%,-1%

# In the list so far, two contain a COOH group:
SMILES,StopGo FLuc,StopGo RLuc
O=C(O)c1cccnc1SCC(F)(F)F,0%,0%
CC(C)CC(=O)N[C@H](C(=O)N[C@H](C(=O)N[C@@H](CC(C)C)[C@@H](O)CC(=O)N[C@@H](C)C(=O)N[C@@H](CC(C)C)[C@@H](O)CC(=O)O)C(C)C)C(C)C,-4%,-6%

# Further compounds:
SMILES,StopGo FLuc,StopGo RLuc
COc1ccc(-c2nc3ncccn3c2Nc2ccccc2C)cc1,59%[activator],23%
CCOCCCn1c(SCC(=O)Nc2ccccc2Cl)nc2c(oc3ccccc32)c1=O,-19%,-9%
CCCCCn1c(NC)nc2c1c(=O)[nH]c(=O)n2C,0%,0%
O=S(=O)(CC1NCc2cc(F)ccc21)NCc1ccc(F)cc1 (centres undefined),2%,77%[activator]
Cc1cccc(NS(=O)(=O)c2cc(C)c(Br)cc2C)n1,30%,99%[activator]
COc1c(CNCc2cccnc2N2CCOCC2)c(C)nn1C,-2%,-8%
CCOc1ccc(-c2cc3c(=O)n(CC(=O)Nc4cc(F)ccc4C)ccn3n2)cc1,47%[activator],-10%
COC(=O)c1c(Oc2ccc(Br)cc2)nnc(-c2ccccc2)c1-c1ccccc1,-8%,-3%
CCN(c1ccccc1)S(=O)(=O)c1nnc(NC(=O)C(C)Oc2ccccc2)s1 (centres undefined),-19%,-11%
Cc1ccc(NC(=O)Cn2cnc3sc(C(=O)O)c(C)c3c2=O)cc1Cl,-18%,-11%
Cc1ccccc1Nc1c(-c2ccccc2O)nc2sccn12,154%[activator],13%
CC(Sc1nnc(-c2ccccc2F)n1C(C)C)C(=O)Nc1nccs1 (centres undefined),-9%,33%[activator]

# Entries of single compounds, looked up by structure. Screens in order: StopGo FLuc	StopGo RLuc
# COc1c(CNCc2cccnc2N2CCOCC2)c(C)nn1C is listed as -2%	-8%
# O=S(=O)(CC1NCc2cc(F)ccc21)NCc1ccc(F)cc1 (centres undefined) is listed as 2%	77%[activator]
# COC(=O)c1c(Oc2ccc(Br)cc2)nnc(-c2ccccc2)c1-c1ccccc1 is listed as -8%	-3%
# Cc1cccc(NS(=O)(=O)c2cc(C)c(Br)cc2C)n1 is listed as 30%	99%[activator]
# Cc1ccc(NC(=O)Cn2cnc3sc(C(=O)O)c(C)c3c2=O)cc1Cl is listed as -18%	-11%

# Next structures:
SMILES,StopGo FLuc,StopGo RLuc
CCOC(=O)c1cc(-c2ccccc2)n(CCC(=O)NCCc2cccc(C)c2)c1C,-21%,7%
COc1ccc(CNC(=O)c2ccc3c(c2)N(Cc2cc(C)ccc2C)C(=O)CS3)cc1,0%,3%
NCCSCc1ccsc1,15%,4%
CCCNc1c(NC(=O)c2c(F)cccc2F)c(=O)oc2ccccc12,18%,23%
Cc1nc2cc(-c3cccc(F)c3)nn2c(C)c1CCC(=O)N1CCN(c2ccc(F)cc2)CC1,u,-5%
COC1C(O)C(C)OC(OC2CCC3(C)C(CC[C@@H]4[C@@H]3CCC3(C)C(C5=CC(=O)OC5)C(O)CC43O)C2)C1O (some centres undefined),2.2µM*,5.6µM*

# Among those listed so far, three contain a CF3 group.
SMILES,StopGo FLuc,StopGo RLuc
O=C(O)c1cccnc1SCC(F)(F)F,0%,0%
O=C(Nc1ccc(Cl)cc1C(F)(F)F)c1ccccc1F,51%[activator],2%
Cc1ccc(CN(C)C(=O)C2CCN(c3ccc(C(F)(F)F)cn3)CC2)c(C)c1,-4%,-1%

# Bioassay records: PubChem BioAssay, National Center for Advancing Translational Sciences (NCATS)
